# High-throughput results deposited in PubChem by ICCB-Longwood Screening Facility, Harvard Medical School.
# Choline anaer gr: blocks anaerobic gram-negative growth on choline. calls only. 55,000 compounds, 0.2% hits. Gram-negative bacterium anaerobic choline minimal medium, absorbance growth; active compounds read low; many inactives read as strong as hits in the columns shown;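 active means growth z-score on choline under -2 at 7 or 20 h with little or no fall on glycerol, limits in tiers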;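 further: stock transfer was 300 nL into about 50 µL; the organism is E. coli; final concentration not given here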
# Choline anaer gr early: recorded beside Choline anaer gr, whose call it bears; z-score; measured here: choline growth z-score, timepoint 1;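 score of optical density at 7 h as mean of two plates; lower means less growth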
# Numbers without * were called inactive; i = inactive; & = joins results of further samples. A portion of the library, so the mix of outcomes need not match the whole.
# Under each structure: Choline anaer gr	Choline anaer gr early
COc1oc(=O)c2cc(N)ccc2c1Cl
    i	-0.05
CCOC(=O)c1[nH]c(C)c(S(=O)(=O)N2CCN(C)CC2)c1C
    i	-0.19
CCC(C(=O)NCCCN1CCCC1)N1C(=O)CCCc2ccccc21 (configuration not stated)
    i	-1.2
O=C(Nc1ccccc1)N1CCCC1c1ccc(Cl)cc1 (configuration not stated)
    i	-0.41
CNCC[C@@H](Oc1cccc2ccccc12)c1cccs1
    i	-1.9
C=CCc1c(C)nn(-c2nc(CC(=O)Nc3nc4ccccc4[nH]3)cs2)c1C
    i	0.11
O=C(O)c1cc2cc(F)ccc2[nH]1
    i	-0.25
CCOc1ccccc1NC(=O)C1=NS(=O)(=O)c2ccccc2N1
    i	0.97
CCOc1ccc(-c2noc(Cn3ncn4nc(-c5ccc(OC)cc5)cc4c3=O)n2)cc1OC
    i	0.43
O=C(Cn1nc2n(CCc3ccccc3)c(=O)c3ccccc3n2c1=O)NC1CCCCC1
    i	0.58
Cc1ccc(C)c(N2CCN(C(=O)c3ccc(S(=O)(=O)c4ccc(C)c(C)c4)nc3)CC2)c1
    i	0.36
Cc1c(-c2nc(-c3ccccc3)no2)nnn1-c1ccc(Cl)cc1
    i	1.3
Cc1sc(-c2noc(C3CCC3)n2)cc1S(=O)(=O)N1CCC(C(=O)NCC2CCCO2)CC1 (configuration not stated)
    i	-0.62
O=C(NCc1ccccc1Cl)c1cccn1-c1nnc(N2CCOCC2)s1
    i	-1.1
CC(C1CC1)n1nccc1NC(=O)c1ccc(Cl)cc1 (configuration not stated)
    i	-0.17
O=C(CN1C(=O)C(C(=O)N2CCCCC2)Sc2ccccc21)N1CCc2ccccc2C1 (configuration not stated)
    i	0.39
Cc1ccc(C(=O)N2CCN(S(=O)(=O)c3ccc4c(c3)NC(=O)CO4)CC2)cc1
    i	-0.99
Clc1ccc(CCNc2ncnc3c(-c4ccc(Cl)cc4)noc23)cc1
    i	2.1
Cc1cnc(C(=O)Nc2ccc(S(=O)(=O)N3CCCC3)cc2)cn1
    i	1.6
CC(C)=CCC/C(C)=C/CC/C(C)=C/CSc1ccccc1C(N)=O
    i	0.58
Cc1cc2[nH]c(C(=O)NCCN3CCOCC3)c(CN3CCCC3)c2s1
    i	0.59
C[N+]12CCC(CC1)C(OC(=O)C(O)(c1ccccc1)c1ccccc1)C2 (configuration not stated)
    i	0.26
Cc1nnc(-c2csc(S(=O)(=O)Nc3ccc(Cl)cc3)c2)o1
    i	-1.3
Cc1ccc(Nc2c(-c3ccc(O)cc3)nc3nc[nH]n23)cc1
    i	-0.61
Fc1ccccc1N1CCN(c2nccn3nc(-c4ccccc4)cc23)CC1
    i	0.65
CCOC(=O)c1sc2cccc(F)c2c1S(=O)(=O)N1CC=C(c2ccccc2)CC1
    i	-1.2
O=S(=O)(c1cccc(Cl)c1)N1CCN(c2ncnc3c2nnn3-c2ccccc2)CC1
    i	-0.53
COc1cc(NC(=O)CCc2nc3sc4c(c3c(=O)[nH]2)CCCCC4)cc(OC)c1
    i	-0.47
Cc1nn(-c2cc(N3CCCC3)ncn2)c(C)c1CCC(=O)N1CCOCC1
    i	-0.85
O=C(Nc1ccc2c(c1)OCCO2)N1CCC(N2CCN(Cc3ccc(F)cc3)C(=O)C2=O)CC1
    i	-0.07
O=C(Nc1ccc(C(=O)N2CCOCC2)cc1)c1cnn2c(C(F)F)cc(-c3ccccc3)nc12
    i	-0.26
O=C(Nc1ccccc1)C1CCN(c2nccn3nc(-c4ccccc4)cc23)CC1
    i	0.58
NC(=O)Cn1cnc2nc(N3CCCC3)sc2c1=O
    i	0.09
Cc1cccc(-c2cnc(N3CCC(C(=O)NC(C)CCc4ccccc4)CC3)nc2)c1 (configuration not stated)
    i	-0.55
Cc1cc2nc(CSc3nc(-c4ccccc4C)nc4cc(=O)[nH]n34)cc(=O)n2o1
    i	-0.38
COc1ccc(NC(=O)c2cn(-c3ccc(-c4noc(C)n4)cc3)nc2C)c(OC)c1
    i	0.97
C=CCNc1ncnc2ccc(Br)cc12
    i	-0.4
CC(C)(C)n1nc(-c2cccc3ccccc23)c2c(N)ncnc21
    i	0.84
Cc1ccc(-c2noc(C(=O)N3CCCCC3)n2)cc1S(=O)(=O)N1CCN(c2ccccc2)CC1
    i	0.13
COc1ccc(C(=O)Nc2ccc(OC)c(OC)c2)c(OC)n1
    i	-0.42

# The results go on.
Structure	Choline anaer gr	Choline anaer gr early
Cc1ccc(-c2nonc2NC(=O)COc2ccc(C(C)(C)C)cc2)cc1C	i	-0.56
c1ccc2c(c1)NC(=NC1CCCCC1)C1(CCCCCC1)N2	i	-0.97
CCCn1c(=O)c2sccc2n2c(CCC(=O)NCCC(C)C)nnc12	i	-0.54
Cc1ccc(CNC(=O)CCc2nc(N3CC(C)CC(C)C3)c3c(C)noc3n2)o1 (configuration not stated)	i	0.35
CCN(CC)c1ccc(C(=O)N2CCN(c3cc(=O)n(C)c(=O)n3C)CC2)cc1	i	0.23
CCc1ccc(NCC2C(Oc3ccc(Cl)cc3)C(=O)N2c2ccccc2C)cc1 (configuration not stated)	i	1.8
Cc1csc(-c2cc(S(=O)(=O)N3CCC(Cc4ccccc4)CC3)c(C)s2)n1	i	1
CCNc1oc(-c2cccs2)nc1S(=O)(=O)c1ccc(Cl)cc1	i	0.02
COc1ccccc1N1CCN(CC(O)COc2cccc3ccccc23)CC1 (configuration not stated)	i	0.76&0.29&-0.21&0.37&0.31
COc1ccc(OC)c(Nc2ncnc3c2nnn3C)c1	i	0
Cc1ccc(Cl)cc1NC(=O)CCS(=O)(=O)c1ccc2c(c1)NC(=O)CS2	i	0.66
O=C(c1cc(-c2cccnc2)on1)N1CCCCC1	i	-2.2
CCOCCCNC(=O)CCc1c(C)nn(-c2cc(N3CCOCC3)ncn2)c1C	i	-1.7
Cn1nnnc1NCc1ccc(-c2cccc(Cl)c2)o1	i	-0.09
COCc1cc(C)nc2sc3c(c12)NCN(c1ccc(C)cc1)C3=O	i	-0.76
Cc1c(Cl)cccc1NC(=O)C1CCCN(C(=O)c2ccccc2F)C1 (configuration not stated)	i	-1.6
Cc1ccc(-c2c(NCc3ccccc3Cl)c(=O)c2=O)cc1	i	-0.23
O=C(NC1CC1)c1cccc2c1CCN2C(=O)C1CC1	i	-1.1
CN(C)c1nc2ncn3c(=O)n(CC(=O)NC4CCCCC4)nc3c2s1	i	-0.49
Clc1ccccc1-c1nn2cnnc2s1	i	-1.9
Cc1oc(-c2ccno2)cc1S(=O)(=O)NCc1ccccn1	i	-0.62
O=C(NC1CCCC1)C1CCCN(c2nc3ncccc3n3cccc23)C1 (configuration not stated)	i	-0.99
Cc1nc(-c2csc(S(=O)(=O)NCc3ccc(Cl)cc3)c2)sc1C	i	-0.67
c1cc(-c2noc(-c3n[nH]c4c3CCCC4)n2)ccc1-c1csc(C2CC2)n1	i	0.89
CCn1ccc2cc(S(=O)(=O)N3CCCN(C(=O)Nc4ccc5c(c4)OCO5)CC3)ccc21	i	0.18
CCOC(=O)c1c(NS(=O)(=O)c2ccc(NC(C)=O)cc2)sc2c1CCC2	i	-1.1
Cc1ccc(-c2noc(Cn3c(=O)n(CCc4ccccc4)c(=O)c4sccc43)n2)cc1	i	2.3
Cc1cc(C(=O)N2CCCC2)c2c(C)nn(-c3ccccc3)c2n1	i	-0.13
Cc1csc(-n2[nH]c(C)c(CCC(=O)Nc3ccc(Br)cc3)c2=O)n1	i	0.27
CC1(C(=O)NC2CCCCC2)Cn2c(cc3occc32)C(=O)N1Cc1cccc(Cl)c1 (configuration not stated)	i	0.31

# 4 entries drawn at random from the list so far:
Structure	Choline anaer gr	Choline anaer gr early
Cc1csc(-n2[nH]c(C)c(CCC(=O)Nc3ccc(Br)cc3)c2=O)n1	i	0.27
CC1(C(=O)NC2CCCCC2)Cn2c(cc3occc32)C(=O)N1Cc1cccc(Cl)c1 (configuration not stated)	i	0.31
Cc1nc(-c2csc(S(=O)(=O)NCc3ccc(Cl)cc3)c2)sc1C	i	-0.67
O=C(NC1CCCC1)C1CCCN(c2nc3ncccc3n3cccc23)C1 (configuration not stated)	i	-0.99

# Going on with the list:
Structure	Choline anaer gr	Choline anaer gr early
COc1ccc(CN2CCCC2c2c(C)noc2C)cc1CN1CCOCC1 (configuration not stated)	i	-0.52
CCOC(=O)c1c(NC(C)=O)c2c3c(sc2n1CC(=O)Nc1ccc(OCC)cc1)CCCC3	i	-0.99
COc1ccc2cc3c(nc2c1)N(C(=O)COc1ccc(Cl)cc1)CC3	i	0.92
O=C(NC1CCCC1)C1CCCN(C(=O)c2cc(-c3cccnc3)n[nH]2)C1 (configuration not stated)	i	0.5
Cc1c(S(=O)(=O)N2CCN(c3cc(-c4ccccc4)ncn3)CC2)cnn1C(F)F	i	0.7
CC(c1nnc(SCC(=O)Nc2ccc3c(c2)OCCO3)n1C)N1C(=O)COc2ccccc21 (configuration not stated)	i	0.6
N[C@@H](CSS(=O)(=O)O)C(=O)O	i	0.22
Cc1ccc(NC(=O)c2nnc(CSCC(=O)N3CCN(c4ccccn4)CC3)s2)cc1	i	0.55
O=C(CCc1nc(CSc2nc3ccccc3s2)no1)Nc1cc(F)cc(F)c1	i	0.2
CCOC(=O)C(OC(=O)c1ccccc1N1C(=O)c2c(C)nc3ccccc3c2C1=O)c1ccccc1 (configuration not stated)	i	-0.83

# Exported with each value named: 3 of the compounds above.
COc1ccc2cc3c(nc2c1)N(C(=O)COc1ccc(Cl)cc1)CC3
  Choline anaer gr = i | Choline anaer gr early = 0.92
O=C(NC1CCCC1)C1CCCN(C(=O)c2cc(-c3cccnc3)n[nH]2)C1 (configuration not stated)
  Choline anaer gr = i | Choline anaer gr early = 0.5
CCOC(=O)c1c(NC(C)=O)c2c3c(sc2n1CC(=O)Nc1ccc(OCC)cc1)CCCC3
  Choline anaer gr = i | Choline anaer gr early = -0.99

# The results go on.
Structure	Choline anaer gr	Choline anaer gr early
CCCc1cc(=O)n2[nH]c(CNc3ccc(Cl)cc3)nc2n1	i	-0.68
CC(C)c1cc(C2CCCN2Cc2ccccc2O)on1 (configuration not stated)	i	-0.49
CCOC(=O)c1cc(C)n(CC2CCC(C(=O)NCc3ccc4c(c3)OCO4)CC2)c1C (configuration not stated)	i	-0.36
Cc1ccc(-c2noc(-c3ccc(=O)n(CC(=O)Nc4cccc(Br)c4)c3)n2)cc1	i	-0.14
CC(=O)OCOC(c1ccc2ccccc2c1)P(=O)(OCOC(C)=O)OCOC(C)=O (configuration not stated)	i	0.55
CC(=O)Nc1ccc(Cc2nc(-c3cccc(-c4csc(C)n4)c3)no2)cc1	i	0.25
Cc1ccc(C(=O)O)cc1-n1c(C)nc2cccnc21	i	-0.62
N=C(N)c1ccc(N=NNc2ccc(C(=N)N)cc2)cc1 (tested in a mixture with another compound)	i	-2.4&-2.8
CCOc1ccc(N2C(=O)CN(C3CCCC3)[C@H]3CS(=O)(=O)C[C@H]32)cc1	i	-0.23
COc1ccc2nc(NC(=O)C3CCN(C(=O)c4ccc(-c5noc(C)n5)cc4)CC3)sc2c1	i	0.45
Cc1onc(-c2ccccc2Cl)c1C(=O)N1CCc2ccccc21	i	0.6
CCN(CC)CCCNC(=O)CN1C(=O)COc2ccc(C)cc21	i	-0.07
CCCNC(=O)CN(C)c1nn2c(NC3CCCC3)c(-c3ccc(OC)cc3)nc2s1	i	-0.25
CCCCC[C@H](O)/C=C/[C@H]1C=CC(=O)[C@H]1CCCCCCC(=O)O	i	-0.26
O=C(NCCCN1CCOCC1)C1CCN(c2ncc(-c3ccccc3)cn2)CC1	i	-0.04
CCCC(=O)NCCc1c2n(c3ccc(OC)cc13)CCCc1ccccc1-2	i	0.24
COc1ccc(Cc2nnc3sc(-c4cnccn4)nn23)cc1	i	0.72
O=C(C1CCN(c2ncnc3c2oc2ccccc23)CC1)N1CCN(c2cccc(Cl)c2)CC1	i	0.98
CSc1ccc(C2Nc3c(C)cc(C)cc3[C@H]3OCCC[C@@H]23)cc1 (some centres not stated)	i	3.7
O=C(CSc1nc(-c2ccccc2)no1)NCCC1=CCCCC1	i	-0.8
COc1ccc(-c2cc(OC(=O)c3ccccc3Cl)c3c(C)oc(C)c3c(=O)c2)cc1OC	i	-0.46
CCCCCn1c(=O)[nH]c2cc(C(=O)NCCNC(C)=O)ccc2c1=O	i	0.4
Cc1onc(-c2ccccc2Cl)c1C(=O)NCCS(=O)(=O)N1CCN(c2ccccc2)CC1	i	-0.63
CC(C)CCNC(=O)N1CCC(N2CCN(Cc3ccc(F)cc3)C(=O)C2=O)CC1	i	-1.1
Fc1cccc(CSc2ncnc3nc[nH]c23)c1	i	-0.62
Cc1cccc(NC(c2ccccn2)c2c(NC(=O)c3ccccc3)sc(C)c2C)n1 (configuration not stated)	i	-0.65
c1ccc(Nc2nc(-c3ccc4c(c3)OCO4)cs2)nc1	i	0.94
Cc1nnc(NC(=O)c2sc(COc3ccc(Cl)c(C)c3)nc2C)s1	i	-0.62
CC(=O)Nc1ccc(-c2nnc3n(Cc4ccc(C)cc4)c(=O)c4ccccc4n23)cc1	i	-0.89
CCN1C(SCC(=O)N(C)c2ccccc2)=NS(=O)(=O)c2ccccc21	i	-0.12
CCc1c(C)nc2ncnn2c1NCc1ccccc1OC	i	0.39
Cc1cc(C)c(NC(=O)c2ccc(-n3nc(OCc4ccc(Cl)cc4)ccc3=O)cc2)c(C)c1	i	1.8
CC1CC(C)CN(C(=O)C2CCN(C(=O)c3cnn(-c4ccccc4)c3-n3cccc3)CC2)C1 (configuration not stated)	i	0.84
CN(C)CCOC(=O)c1cnn2c(C(F)(F)F)cc(-c3ccccc3)nc12	i	0.86
Cc1cc(N2CCC(NC(=O)NC3CCCCC3)CC2)n2ncnc2n1	i	0.85
